Screens deposited in PubChem by National Center for Advancing Translational Sciences (NCATS).
Rango-impB inh = Rango-importin beta binding inhibition | Q14974 | Rango CFP/YFP FRET sensor + importin beta, 45 min | Potency, µM (top dose mostly 92.2 µM), for the others: top-dose inhibition of complex formation | 340,000 compounds, 0.031% hits; active = rising FRET ratio curve, often small or poorly fitted; inconclusive = mostly compound fluorescence or quenching in the first reads; inactive = flat curves in all reads;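 also: potency is read from the fitted curve at half-maximal effect; 0% = DMSO wells and 100% = buffer wells lacking importin beta; nearly all actives have a fitted effect of over 15% in size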
Target sequence (Q14974 whole entry, looked up): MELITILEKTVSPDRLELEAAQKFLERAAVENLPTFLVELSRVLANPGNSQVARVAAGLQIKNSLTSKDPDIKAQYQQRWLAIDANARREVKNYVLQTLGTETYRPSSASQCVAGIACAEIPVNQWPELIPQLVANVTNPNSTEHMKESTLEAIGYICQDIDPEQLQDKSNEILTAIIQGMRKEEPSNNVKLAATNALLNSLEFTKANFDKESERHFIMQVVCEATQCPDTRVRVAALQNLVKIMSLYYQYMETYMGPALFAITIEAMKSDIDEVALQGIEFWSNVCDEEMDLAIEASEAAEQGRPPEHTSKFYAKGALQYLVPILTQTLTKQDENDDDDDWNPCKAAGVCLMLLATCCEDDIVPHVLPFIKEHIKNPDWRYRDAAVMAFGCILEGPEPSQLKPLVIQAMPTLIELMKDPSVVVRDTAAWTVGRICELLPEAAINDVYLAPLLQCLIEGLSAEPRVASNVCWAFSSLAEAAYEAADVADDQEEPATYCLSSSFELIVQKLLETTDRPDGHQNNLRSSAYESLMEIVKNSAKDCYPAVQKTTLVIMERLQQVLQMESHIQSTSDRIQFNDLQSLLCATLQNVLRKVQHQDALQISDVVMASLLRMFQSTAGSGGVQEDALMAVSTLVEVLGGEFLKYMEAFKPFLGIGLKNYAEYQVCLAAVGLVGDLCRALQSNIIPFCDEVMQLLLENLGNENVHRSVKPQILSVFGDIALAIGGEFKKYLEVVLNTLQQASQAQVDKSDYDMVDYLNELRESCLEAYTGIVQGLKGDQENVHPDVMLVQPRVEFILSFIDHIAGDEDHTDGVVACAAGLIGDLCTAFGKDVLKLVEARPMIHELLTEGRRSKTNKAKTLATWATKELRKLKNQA
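FRET biosensor (snurportin 1 IBB flanked by EYFP and cerulean), 50 nM, with compound 5 min, then 0.125 microM importin beta in PBS, 1 mM DTT, 0.02% Tween-20, 0.1% BSA. CFP/YFP ratio read after 45 min at room temperature; pre-read flags interference.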
miR-21 reporter = miR-21 reporter, rising signal; HeLa miR-21 FLuc reporter, luciferase, 48 h; Potency, µM (doses to about 38.3 µM), for inactives: at the highest dose reporter change, positive = more light; 340,000 tested, under 10 active; AID 2288; active = well fitted rising curve with a large enough effect; inconclusive = small, poorly fitted or top-dose-only effect; inactive = no such curve, though single readings can be large or run the other way;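 also: % of control where 0% means no effect; miR-21 action dims this reporter so a rising signal means less miR-21 action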
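HeLa cells stably expressing CMV-driven firefly luciferase with a downstream miR-21 binding sequence, endogenously expressing miR-21, were treated with titrations (up to about 40uM final) for 48 hours at 37 degree Celsius. Luciferase luminescence was read after lysis.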
GLA inh pH 4.5 = blocks human alpha-galactosidase A at pH 4.5; P06280; 230,000 tested, under 10 active; activity change, negative = inhibition, % at 105 µM; purified enzyme, 4-MU-alpha-Gal fluorescence, pH 4.5; inconclusive = small, poorly fitted or top-dose-only inhibition, or a rising curve; inactive = flat fitted curve, though single readings scatter; no compound was filed as active;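 also: 0% = full activity with enzyme and -100% = basal without enzyme; dose as in the result columns while the protocol names 77 µM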
Rango dissoc inh = inhibition of RanGTP-driven Rango-importin beta dissociation; O95149+P62826; Biochemical FRET Rango-importin beta, RanGTP-induced dissociation; Potency, µM (series often up to 46.1 µM), for inactives: top-dose activity change, negative = inhibition; 340,000 compounds, 0.071% hits; active means falling FRET ratio curve, often poorly fitted, with flat reads before Ran was added; inconclusive means other falling curves, or compound fluorescence or quenching; inactive means flat or rising ratio curve;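 also: potency is read from the fitted curve at half-maximal effect; % of control where 0% means no effect; nearly all actives have a fitted effect of over 45% in size; -100% = wells without RanGTP and RCC1; the record marks most hits as doubtful in a second field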
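Compounds preincubate 5 min with complex of recombinant Rango and importin beta in PBS with 1 mM DTT. Ran (0.6 uM) loaded with 2 mM GTP plus 0.2 uM RCC1 starts dissociation; FRET is recorded 45 min later.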
An asterisk follows results filed as active; ? = inconclusive; · = no result given; & = joins results of further samples. An excerpt, so the mix of outcomes need not match the whole.

molecule	Rango-impB inh	miR-21 reporter	GLA inh pH 4.5	Rango dissoc inh
Cc1nc2ccccc2c(=O)n1-c1ccncc1	?	-8%	-4	12%
Cc1cc(C(=O)Nc2ccc(CC(=O)O)cc2)c(C)o1	0.4%	24%	·	?
CN(C)C(=O)On1c(-c2ccccc2)nc2ccc(Cl)cc21	2.3%	-29%	6	1%
Cn1cccc1CNCCc1ccccc1	·	-9%	7	·
CCN(CCCl)c1cc(CN(C)C)cc(NC(=O)c2ccc(C(=O)Nc3cc(CN(C)C)cc(N(CC)CCCl)c3)cc2)c1	2.9%	·	·	8%
COc1cccc(O)c1CN1CCCC(C(=O)c2ccccc2SC)C1 (stereo not drawn)	-0.8%	13%	-7	-15%
CC/C(=N\NC(=O)c1ccccc1O)c1c(O)n(Cc2ccccc2)c(=O)[nH]c1=O	-2.5%	-14%	-15	3%
C=Cc1cc(OC)c2c(c1)c(=O)oc1c2cc(OC)c2c(O)ccc(C3OC(C)C(O)C(C)(O)C3O)c21 (stereo not drawn)	?	·	·	?
CN(c1ccc(OCC(=O)N2CCN(C/C=C/c3ccccc3)CC2)cc1)S(=O)(=O)c1cccs1	?	25%	-6	-3%
O=[N+]([O-])c1[nH]cnc1Br	-1.4%	·	·	-12%
c1cc2c(cc1[C@H]1OC[C@H]3[C@@H]1CO[C@H]3c1ccc3c(c1)OCO3)OCO2	0.1%	·	·	-1%
O=[N+]([O-])NC1=NCCN1Cc1ccc(Cl)nc1	-1.7%	2%	·	-12%
COc1ccc(-n2c(O)c(C(C)=NCc3ccc4c(c3)OCO4)c(=O)[nH]c2=O)cc1	2.7%	-9%	-2	1%
CCN(CC)C(=O)Oc1ccc2cc(Br)ccc2c1	6.5%	-63%	1	10%
CC(C)[C@]12O[C@H]1[C@@H]1O[C@]13[C@]1(O[C@H]1C[C@H]1C4=C(CC[C@@]13C)C(=O)OC4)[C@@H]2O	·	?	5	·
CCOc1nc(NC(C)C)nc(N2CC3CC(C2)c2cccc(=O)n2C3)n1 (stereo not drawn)	1.0%	-2%	-9	-1%
C=CCSc1nc2c(c(-c3ccsc3)c1C#N)CN(C)CC2	?	-13%	-18	?
CCCC12CN3CCN(C1)CC(CCC)(C3)C2=O	1.7%	3%	8	5%
COC(=O)c1cncn1C(C)c1ccccc1 (stereo not drawn)	-3.5%	-3%	4	1%
CCCCN=C[C@]12CCC(O)CC1(O)CCC1[C@@H]2CC[C@]2(C)[C@H](C3C=CC(=O)O3)CCC12O (stereo partly drawn)	4.3%	?	·	31%
CC1CN=C(NCc2ccc(F)cc2)S1 (stereo not drawn)	2.8%	-14%	4	-18%
CC1=C(/C=C/c2ccccc2)CCN(C)C1	3.4%	-21%	2	-4%
CN=C1CN(O)C(c2ccccc2)c2cc(Cl)ccc2N1 (stereo not drawn)	4.8%	·	·	-1%
COC(=O)C1=C(c2ccc(-c3ccccc3)c(F)c2)C[C@@H]2CC[C@H]1N2C(=O)NCc1cccc2ccccc12	-0.1%	·	·	2%
NC(=O)Nc1cccc(C(F)(F)F)c1	-7.1%	-17%	-12	-7%
Cc1ccc(-c2nc3ccccc3c(=O)n2-c2cccc(O)c2)cc1	-1.6%	0%	0	4%
Cc1cccc(-n2c(O)c(C=NCCN3CCCCC3)c(=O)[nH]c2=O)c1	-1.1%	4%	-10	1%
C#CCN1CCN(c2cccc(C(F)(F)F)c2)CC1	1.2%	-1%	3	0%
CCC(=Nc1ccc(OC)cc1OC)c1c(O)n(C)c(=O)n(C)c1=O	0.8%	15%	5	3%
CS(=O)(=O)NCc1nnc2n1-c1ccc(Cl)cc1C(c1ccccc1)=NC2	0.1%	-6%	4	11%

Given with values under each structure: entries from further up
Each structure is followed by: Rango-impB inh, miR-21 reporter, GLA inh pH 4.5, Rango dissoc inh
> COC(=O)c1cncn1C(C)c1ccccc1 (stereo not drawn)
 : -3.5%, -3%, 4, 1%
> CCCCN=C[C@]12CCC(O)CC1(O)CCC1[C@@H]2CC[C@]2(C)[C@H](C3C=CC(=O)O3)CCC12O (stereo partly drawn)
 : 4.3%, ?, ·, 31%

New compounds follow:
molecule	Rango-impB inh	miR-21 reporter	GLA inh pH 4.5	Rango dissoc inh
O=c1[nH]c(=S)[nH]c(O)c1C(c1ccccn1)c1c(O)[nH]c(=S)[nH]c1=O	0.5%	2%	-3	-20%
CCN1CCN(Cc2ccc(OC(F)(F)F)cc2)CC1	-1.4%	-7%	1	2%
N=c1c[n+](CC23CC4CC(CC(C4)C2)C3)[n-]o1	0.2%	-8%	1	-1%
O=P(NC(c1ccccc1)c1ccccc1)(Oc1ccccc1)Oc1ccccc1	3.8%	-1%	1	14%
O=c1[nH]c(CN2CC=C(c3ccccc3)CC2)nc2scc(-c3ccccc3)c12	?	0%	-5	-29%
O=c1c2ccccc2nc(Cc2ccccc2)n1-c1ccccc1O	-3.4%	-3%	-9	8%
O=C1CC(c2cccnc2)=NN1c1ccc(Cl)cc1Cl	-0.3%	-7%	6	-5%
C/C(=N\N1CCCCCC1)c1c(O)n(-c2ccc(Cl)cc2)c(=O)[nH]c1=O	-1.4%	-4%	-4	0%
O=C(N/N=C1/CN2CCC1CC2)c1cccc(O)c1	1.1%	-13%	-23	-12%
CNC(C(=O)c1ccccc1)C(OC)c1cccc([N+](=O)[O-])c1 (stereo not drawn)	5.8%	2%	11	36%
Cc1c(C=C2C(=O)N(C)C(=O)N(C)C2=O)c(=O)n(-c2ccccc2)n1C	-1.1%	-7%	-12	8%
c1cc2n(c1)-c1c(ccc3c1OCO3)CNC2c1ccc2c(c1)OCO2 (stereo not drawn)	-3.4%	5%	-6	2%
COc1ccc(NC(c2ccccc2)P(=O)(Oc2ccccc2)Oc2ccccc2)cc1 (stereo not drawn)	-2.1%	-15%	0	3%
CCOC(=O)c1nc2ccccc2c(=O)n1-c1ccc(C)cc1	-2.3%	0%	-1	7%
COC(=O)C1=C(c2ccc(C(C)=O)cc2)C[C@@H]2CC[C@H]1N2C(=O)NCCO	-1.4%	·	·	10%

Filtered by structure, the compounds so far with an aryl thioether with sulfur outside any ring (2)
molecule	Rango-impB inh	miR-21 reporter	GLA inh pH 4.5	Rango dissoc inh
COc1cccc(O)c1CN1CCCC(C(=O)c2ccccc2SC)C1 (stereo not drawn)	-0.8%	13%	-7	-15%
C=CCSc1nc2c(c(-c3ccsc3)c1C#N)CN(C)CC2	?	-13%	-18	?

(list continues)
molecule	Rango-impB inh	miR-21 reporter	GLA inh pH 4.5	Rango dissoc inh
O=c1cccc2n1CC1CC2CN(Cc2c(Cl)cccc2Cl)C1 (stereo not drawn)	6.2%	2%	-2	11%
CC(C)(C)c1ccc(S(=O)(=O)N2CC3CC(C2)c2cccc(=O)n2C3)cc1 (stereo not drawn)	-4.9%	-3%	11	0%
Fc1ccc(N2CCN(Cc3ccc4c(c3)OCO4)CC2)cc1	-4.2%	-10%	5	3%
COC(=O)CC1=C(C(=O)OC)C2(C(=O)Nc3c(C)cccc32)C(C#N)=C(N)O1 (stereo not drawn)	1.0%	1%	10	-12%
ClC(Cl)(Cl)c1ccccc1	-1.9%	·	·	26%
c1ccc2c(c1)[nH]c1cnccc12	0.2%	-8%	4&13	-12%
O=C(COC(=O)Cc1ccccc1)NNC(=O)c1ccc([N+](=O)[O-])cc1	0.7%	·	·	3%
Cc1[nH]nc2ccc(-c3cncc(OC[C@@H](N)Cc4c[nH]c5ccccc45)c3)cc12	3.0%	·	·	17%
Cc1cc(=O)oc2cc3c(cc12)CCCN3	?	-32%	·	?
CC(C)CN(CC(C)C)C(=O)C1C2c3ccccc3C(c3ccccc32)C1C(=O)O (stereo not drawn)	-0.4%	2%	-1	1%
C=CCC1(CN2CCCCCC2=O)C(=O)NC(=O)NC1=O	-1.5%	-6%	8	-9%
CCOC(=O)C(=CNc1ccc(C(O)(C(=O)OCC)C(F)(F)F)cc1C)C(=O)OCC (stereo not drawn)	1.0%	8%	-2	10%
Cc1cc(NC(=O)C(Cl)(Cl)Cl)no1	1.7%	4%	4	1%
CC(C)C(NC(=O)C(C(C)C)N(C)C)C(=O)N(C)C(C(=O)N1CCCC1C(=O)N1CCCC1C(=O)NCc1ccccc1)C(C)C (stereo not drawn)	2.4%	·	·	-5%
COc1ccccc1N1C(=O)NC(=O)/C(=C\c2cnn(-c3ccccc3)c2)C1=O	-1.6%	-6%	-2	2%
C=C1C(C)C2C(Cc3ccccc3)NC(=O)C23C(OC(C)=O)C=CC(C)(O)CC(C)CC=CC3C1O (stereo not drawn)	-2.0%	·	·	15%
CCN1C(=O)N(CC)C(=O)C2(Cc3ccccc3N3CCN(c4ccccc4)CC32)C1=O (stereo not drawn)	-3.8%	-35%	-15	-21%
CC1(C)CN=C(NCc2ccccc2)S1	1.4%	·	·	8%
CCN1C[C@]2(C)CC[C@H](O)[C@]34C1[C@H](C[C@H]23)[C@@]1(O)C[C@H](OC)[C@H]2C[C@@H]4[C@@H]1C2O (stereo partly drawn)	-1.2%	·	·	-11%
COC(=O)C(O)(c1ccc(NC(=O)NC2CCCCC2)cc1)C(F)(F)F (stereo not drawn)	-4.2%	-61%	-9	-18%
CCNCC(O)c1cccc(O)c1 (stereo not drawn)	3.3%	-9%	·	10%
CCOP(=O)(OCC)C(O)c1ccccc1 (stereo not drawn)	-3.3%	0%	1	-1%
CCc1c(C)nc(N)nc1N1N=C1SCCOc1ccccc1	2.3%	1%	-3	1%
CC(C)(C)c1csc(NC(=O)Nc2ccccc2)n1	2.3%	7%	-27	-16%
COC1=CC(=O)O[C@@H](/C=C/c2ccccc2)C1	-0.9%	·	·	11%
Cc1cccc(OCCCn2c(=O)oc3ccccc32)c1	-0.7%	-51%	-10	?
CC1=CC(O)C(O)C2(C)C1CC1OC(=O)CC3C(C)C(O)C(=O)C2C13CO (stereo not drawn)	4.3%	·	·	4%
CCOP(=O)(OCC)c1nc(-c2cccc3ccccc23)oc1N1CCOCC1	6.3%	13%	?	12%
COC(=O)C1=C(c2ccccc2OCc2ccccc2)C[C@@H]2CC[C@H]1N2C(=O)NCCc1ccc(F)cc1	-2.0%	·	·	0%
CN(C)c1ccc(C=C2C(=O)NC(=S)NC2=O)cc1	-0.3%	·	·	1%
CCCCn1c(O)c(C=NCCN2CCCCC2)c(=O)[nH]c1=O	0.1%	1%	-2	-1%
O=S(=O)(c1ccc(Cl)cc1)c1ccc(Cl)cc1	2.3%	·	·	7%
COC(=O)C1=C(c2c(C)noc2C)C[C@@H]2CC[C@H]1N2C(=O)NCc1ccco1	3.1%	·	·	9%
O=C(Nc1cccc(C(F)(F)F)c1)OC1CN2CCC1CC2 (stereo not drawn)	-4.5%	-10%	·	-2%
CCOc1ccc([N+](=O)[O-])cc1CNCCc1ccccc1	0.2%	-10%	3	14%
O=c1c2ccccc2nc(/C=C/c2ccc(F)cc2)n1-c1ccccc1O	-1.1%	-7%	·	2%
CCOC(=O)C1(CCCc2ccccc2)CCN(C2CCCC2)CC1	0.5%	0%	-12	-4%
O=C1NC(=O)C(=Cc2ccc(OCCOc3ccc([N+](=O)[O-])cc3)cc2)C(=O)N1	0.8%	-6%	-3	4%
N#CC1=C(N)Oc2c(c(=O)oc3ccccc23)C1c1ccc([N+](=O)[O-])o1 (stereo not drawn)	?	4%	2	?
Cc1ccc(S(=O)(=O)N2CN3CCN(C3)C2)cc1	-0.3%	-1%	-4	-10%
COc1ccc(OC)c(-n2c(O)c(C=Nc3c(C)n(C)n(-c4ccccc4)c3=O)c(=O)[nH]c2=O)c1	0.5%	-9%	-6	-10%
O=C(COc1ccccc1)N1CCN(CC2CC=CCC2)CC1 (stereo not drawn)	9.8%	-6%	·	-2%
COc1cc(C(O)CNC(C)C)cc(F)c1OC (stereo not drawn)	5.0%	·	·	-19%
O=C1/C(=C\c2ccc3c(c2)OCO3)N2CCC1CC2	5.3%	-3%	2	10%
c1cc(C2N3CCCN2CC3)ccn1 (stereo not drawn)	3.7%	2%	-2	-19%
CN1CCc2nc(N)c(C#N)c(-c3ccccc3)c2C1	?	-3%	-7	0%
